HPGD block: inhibitors of human 15-hydroxyprostaglandin dehydrogenase (HPGD) | P15428 | purified HPGD, NADH fluorescence kinetic, PGE2 substrate | Potency, µM, for the others: top-dose activity change, negative = inhibition, most hits filed as inhibitors | actives 4.3% (n = 150,000); active = well fitted inhibition curve with a large enough effect (not every such curve was filed as active); inconclusive = small, poorly fitted or top-dose-only effect, or another doubt; inactive = no such curve, though single readings can be large or run the other way;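 further: top concentration of the series not given in the record; plate controls included wells without enzyme; inactives centre near -10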
Target sequence (P15428 whole entry, looked up): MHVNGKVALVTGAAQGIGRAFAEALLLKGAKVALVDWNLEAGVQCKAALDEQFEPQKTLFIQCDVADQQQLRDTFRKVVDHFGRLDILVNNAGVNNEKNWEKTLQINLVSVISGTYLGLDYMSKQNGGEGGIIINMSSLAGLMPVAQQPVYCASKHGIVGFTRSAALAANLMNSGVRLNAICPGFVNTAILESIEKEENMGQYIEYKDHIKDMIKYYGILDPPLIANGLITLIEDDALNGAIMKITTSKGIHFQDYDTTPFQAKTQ
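20 nM HPGD preincubated 15 min at room temperature with compound in 50 mM Tris-HCl pH 8, 0.01% Tween 20. Started with 1 mM NAD+ and 30 uM prostaglandin E2; NADH fluorescence (360/450 nm) read 5 times over 30-s intervals, last minus first.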
Numbers without * were called inactive; ? = inconclusive; & = joins results of further samples. On the % scale 0 is the no-effect control and ±100 the full control effect; potency means the concentration at half of the fitted maximal effect. Some of the compounds tested, so the mix of outcomes need not match the whole.

SMILES	HPGD block
CCCn1c(-c2ccc(F)cc2)nc2c(NCCCCN(CC)CC)nc(C)nc21	?
NS(=O)(=O)c1ccc(NC(=S)NCc2ccc(Cl)cc2)cc1	20µM*
CSC(=Nc1ccc(Cl)cc1)N[n+]1ccccc1	0.2%
CCOCC(=O)Nc1nnc(C)s1	-15.1%
CC1CCCC(NC(=O)COC(=O)c2c[nH]c(=O)[nH]c2=O)C1C (stereo not drawn)	-3.6%
O=C1c2cccc3cccc(c23)C(=O)N1/N=C/c1ccc(O)cc1O	-5.3%
CCOC(=O)c1c(NC(=O)c2ccc(S(=O)(=O)N3CCOCC3)cc2)sc2c1CCN(C)C2	-11.2%
COc1ccccc1NC(=O)Cn1cnc2sc(C)c(S(=O)(=O)N3CCCCC3)c2c1=O	-4.1%
C=CCNC(=O)c1cc(-c2ccc(Br)cc2)on1	-13.0%
CN(C)CC(C)(C)CNC(=O)c1ccc(Cc2nc3ccccc3[nH]2)cc1	-5.3%
COC(=O)CN(C#N)c1nc(NC(C)C)nc(OC)n1	-12.8%
CCCOC(=O)Nc1nc2ccccc2o1	-17.9%
N#Cc1nc(-c2cccs2)oc1NCCN1CCOCC1	?
CCOc1ccc(CCNC(=O)CN2CCN(Cc3ccc(F)cc3)C2=O)cc1OCC	-7.0%
CC(C)C1Oc2ccccc2N(CC(=O)N(Cc2ccncc2)Cc2ccco2)C1=O (stereo not drawn)	-0.4%
COc1ccc(NC(=O)Nc2ccc(C)cc2OC(F)F)cc1OC	-8.4%
COc1cccc(N2CCN(Cc3ccsc3)CC2)c1	-1.1%
CCOC(=O)c1c(C)oc2ccc(OCC(=O)C(C)(C)C)cc12	-28.1%
CCC(C(=O)OCC(=O)Nc1ccc(SC(F)F)cc1)c1ccccc1 (stereo not drawn)	-0.7%
CCOC(=O)CC1=C(C(=O)OCC)C(c2ccc(OC)c(OC)c2)C(C#N)=C(N)O1 (stereo not drawn)	-29.4%
CC(CCc1ccccc1)NC(=O)Cc1ccccc1 (stereo not drawn)	-12.2%
CCOc1ccc(CNC(=S)N/N=C/c2ccncc2)cc1	-11.5%
Nc1cc(C(=O)c2cccs2)ccc1Cl	-26.9%
COc1ccc(-c2cc(CNC(=O)CN(C)Cc3ccccc3)on2)cc1	25.1µM*
NC(N)=NC(N)=Nc1ccccc1	-12.6%&-7.2%&-4.8%

Reprinted from the part before: 7 compounds, then new ones.
SMILES	HPGD block
CCC(C(=O)OCC(=O)Nc1ccc(SC(F)F)cc1)c1ccccc1 (stereo not drawn)	-0.7%
CCOC(=O)CC1=C(C(=O)OCC)C(c2ccc(OC)c(OC)c2)C(C#N)=C(N)O1 (stereo not drawn)	-29.4%
CC(CCc1ccccc1)NC(=O)Cc1ccccc1 (stereo not drawn)	-12.2%
CCOc1ccc(CNC(=S)N/N=C/c2ccncc2)cc1	-11.5%
Nc1cc(C(=O)c2cccs2)ccc1Cl	-26.9%
COc1ccc(-c2cc(CNC(=O)CN(C)Cc3ccccc3)on2)cc1	25.1µM*
NC(N)=NC(N)=Nc1ccccc1	-12.6%&-7.2%&-4.8%
CN(Cc1ccccc1)C(=O)COc1ccccc1	-21.3%
COc1cc(OC)cc(C(=O)N[C@H](C(=O)OCC(=O)Nc2ccc(C(N)=O)cc2)C(C)C)c1	-2.8%
CCC1CCc2c(sc(NC(=O)C3c4ccccc4Oc4ccccc43)c2C(N)=O)C1 (stereo not drawn)	?
CS(=O)c1ccccc1COC(=O)Nc1cccc(Cl)c1 (stereo not drawn)	-1.4%
CN1CC2(Cc3c1ccc1ccccc31)C(=O)OC(C)(C)OC2=O	?
Cc1ccc(N=Nc2c(O)n(CN3CCOCC3)c3ccccc23)cc1	-3.9%
O=C(CSC1=NCCS1)N1CCCCCC1	28.2µM*
COc1ccc(/C=N/Nc2nc(-c3cccc(S(=O)(=O)N4CCCC4)c3)cs2)cc1OC	?
Cc1cc(NCc2ccccc2)nc(-c2ccccc2O)n1	?
CCOc1nc(C)ccc1-c1noc(-c2ccco2)n1	-1.8%
Cc1onc(-c2ccccc2Cl)c1C(=O)NC(=S)Nc1ccccc1C(N)=O	-16.8%
COc1ccc(N=Cc2c(O)[nH]c3ccccc23)cc1	-10.3%
Cn1c(N)c(C(=O)COC(=O)CCCc2c[nH]c3ccccc23)c(=O)n(C)c1=O	-8.4%
Cc1ccc(NC(=O)COC(=O)c2cccc3c(=O)c(C)c(-c4ccccc4)oc23)cc1	-20.1%
CCOC(=O)COc1ccc([N+](=O)[O-])cc1	-14.2%
COc1ccccc1C(=O)Nc1ccc2c3c(cccc13)CC2	?
N#C/C(=C\c1ccccc1C(F)(F)F)C(=O)Nc1ccccc1F	-7.8%
Cc1ccc(S(=O)(=O)Cn2nnnc2C(CC(C)C)N2CCN(c3ccccc3)CC2)cc1 (stereo not drawn)	-14.9%
Nc1ncnc2c1ncn2CCNCCc1ccccc1	-12.9%
Cc1c(C#N)c(N)nc2c3c(sc12)NC(=O)CC3c1ccc(F)cc1 (stereo not drawn)	?
CC(=O)c1ccc(NC(=O)Cn2nc(C)cc2C)cc1	-13.3%
CCOC(=O)Cn1c(-c2ccccc2)nc2ccccc2c1=O	-6.9%
CCC1C(=O)N=C(SCC(=O)Nc2cccc3ccccc23)NC1=O (stereo not drawn)	-13.3%
COc1ccc2c(c1)c(CC(=O)Nc1ccccc1OC)c(C)n2C(=O)c1ccc(Cl)cc1	-10.2%
CCCCC(c1nnnn1CCOC)N1CCN(C)CC1 (stereo not drawn)	-0.9%
(next part)
SMILES	HPGD block
Cc1[nH]c2ccccc2c1-c1nc2ccccc2[nH]1	?
COc1ccc(-c2cc(C(F)(F)F)nc(SCC(=O)Nc3ccc4c(c3)OCO4)n2)cc1OC	?
C1CCc2nnc(-c3nnc4n3CCCCC4)n2CC1	-8.1%
CCOC(=O)C1=C(N)n2c(s/c(=C\c3cccs3)c2=O)=C(C(=O)OCC)C1c1cccs1 (stereo not drawn)	-8.1%
Cc1ccc(-n2c(O)c(/C=N/n3cnnc3)c3ccccc3c2=O)cc1	?
CC(C)Nc1nnc(Sc2ccc(Cl)cc2[N+](=O)[O-])s1	?
COc1cc(C2C3CN(C)CC=C3C(C#N)=C(N)C2(C#N)C#N)ccc1OC(C)C (stereo not drawn)	-15.3%
COc1ccc(C)cc1NC(=O)NCCC1=CCCCC1	-17.9%
CCCCN(CCCC)CCNC(=O)CNC(=O)c1cccs1	-11.9%
CC1=C(C#N)C(c2ccc3ncccc3c2)C(C#N)=C(C)N1	-6.1%
COc1ccc(/C=C2\SC(=S)N(NC(=O)c3csc4c3CCCC4)C2=O)cc1	-8.7%
Cc1ccc(C(=O)SC2=NCCS2)cc1	-23.8%
Cc1cc(C)nc(/N=C2\NC(=O)CC3C(=O)NCCN23)n1 (stereo not drawn)	1.4%
CCOC(=O)CCCNC(=O)CN1C(=O)NC2(CCCCCC2)C1=O	-5.3%
O=C(NCc1ccccn1)C1CCCN(S(=O)(=O)c2ccccc2)C1 (stereo not drawn)	-25.1%
COC(=O)c1ccccc1C(=O)N1CCOCCOCCOCC1	0.2%
O=S(=O)(c1ccccc1)N1CCC[C@@]2(CCN(c3cccc(-c4ccccc4)c3)C2)C1	-11.0%
COc1ccccc1NC(=S)N1CCN(C(=O)c2ccco2)CC1	-5.5%
CCOC(=O)C1CCCN(C(=O)c2cncc(Br)c2)C1 (stereo not drawn)	-7.1%
COC(=O)CCn1[nH]c(=O)c2ccccc2c1=O	-7.7%
CC(SC1=NCCS1)C(=O)Nc1nnc(-c2ccc(Cl)cc2)s1 (stereo not drawn)	-11.7%
C[C@@]12CC[C@@H]3c4ccc(O)cc4CC[C@H]3[C@H]1CC[C@H]2O	-1.3%
O=C(c1ccc(Cl)cc1)c1cnc2ccccn12	-11.5%
CCNC(=O)CN(C1CCCCC1)S(C)(=O)=O	5.5%
O=C(C1CC1)N1CCN=C1SCc1ccc(Cl)cc1	-17.7%
New compounds follow.
SMILES	HPGD block
Cc1ccccc1NC(=O)N(C(C)C)C(C)C	-4.0%
Cc1ccc(S(=O)(=O)N2CCC(C(=O)NCC3CCCO3)CC2)cc1 (stereo not drawn)	-6.8%
Cc1ccc(C)c(CSc2ncccc2C(=O)O)c1	-10.4%
Cc1ccc(C(C(=O)NC2CCCCC2)N2CCC3(CC2)OCCO3)cc1 (stereo not drawn)	0.0%
COc1ccc(CCNC(=O)CNS(=O)(=O)c2ccc(Br)s2)cc1OC	-6.3%
C=C(C)C1Cc2cc3ccc(=O)oc3cc2O1 (stereo not drawn)	?
O=C(O)CCNc1nc(-c2ccccc2)nc2ccccc12	-16.9%
O=c1[nH]c2sc3c(c2c(=O)n1Cc1ccccc1)CCC3	-12.5%
O=C(c1ccco1)N1CCN(CC(O)COc2ccc3oc4ccccc4c3c2)CC1 (stereo not drawn)	-9.2%
O=c1c2ccccc2nc(/C=C/c2ccc([N+](=O)[O-])cc2)n1CCCO	-11.7%
COCCNC(=O)c1ccccc1NS(=O)(=O)c1ccc(Br)s1	-3.4%
O=C(c1cc2c(s1)CCC2)N1C(=O)c2ccccc2S1(=O)=O	-4.4%
Cc1ccc(-c2onc3ccc(C4(C)OCCO4)cc23)cc1	-16.1%
Brc1ccc(NCc2cccc3ccccc23)nc1	-20.7%
O=C(CSc1nc(-c2ccccc2)c(-c2ccccc2)[nH]1)NCc1ccco1	-10.0%
COc1cc2c(cc1O)C(Cc1ccc(O)cc1)[N+](C)(C)CC2 (stereo not drawn)	-15.8%
CS(=O)(=O)N(Cc1ccccc1)c1ccc(C(=O)N2CCN(c3cccc(Cl)c3)CC2)cc1	-1.9%
CCOC(=O)c1coc(CNC(=O)c2c(C)oc3c2CCCC3)c1	-10.8%
O=C(COC(=O)Cn1cnc2ccccc21)Nc1ccc2c(c1)OCCO2	-6.3%
CCn1c(CNC(=O)c2ccc(OC)c(OC)c2)nnc1SCC(=O)c1ccc(OC)cc1	-10.8%
CCCC1CCC(=NNS(=O)(=O)c2ccc(C)c([N+](=O)[O-])c2)CC1 (stereo not drawn)	-2.5%
O=C(Cn1ccc([N+](=O)[O-])n1)N1CCCc2ccccc21	-5.3%
Cc1sc(-n2c(C)ccc2C)c(C#N)c1C	17.8µM*
Cc1ccc(S(=O)(=O)N(C)CC(=O)N2CCOCC2)cc1	-12.2%
Nc1nnc(CC(=O)N/N=C/c2cccc([N+](=O)[O-])c2)s1	-7.6%
More compounds
SMILES	HPGD block
Cc1cc(C)c(S(=O)(=O)c2ccccc2)c(Cl)n1	-22.4%
Cc1ccccc1NC(=S)N1CCN(Cc2ccc3c(c2)OCO3)CC1	1.2%
Cc1ccc(S(=O)(=O)Nc2ccc(N=Nc3ccc(O)cc3)cc2)cc1	-13.0%
C=CCSc1nnc2c(n1)OC(c1cccnc1)N(C(C)=O)c1ccccc1-2 (stereo not drawn)	-8.0%
O=C(CSc1ncn[nH]1)NCc1ccccc1	-8.4%
CCOC(=O)CSC1=Nc2ccccc2C2=NC(CC(=O)NCc3ccc(OC)cc3)C(=O)N12 (stereo not drawn)	-26.9%
CCOC(=O)C(NC(=O)OC(C)C)(Nc1nccs1)C(F)(F)F (stereo not drawn)	-4.0%
Cc1cccc(C(=O)NCCc2ccc(S(N)(=O)=O)cc2)c1[N+](=O)[O-]	-10.7%
Cc1cccc(NC(=O)c2sc(-c3ccccc3)nc2-c2ccc([N+](=O)[O-])cc2)c1	-15.0%
Cc1ccccc1NC(=O)CSc1nnc(Cc2ccccc2)o1	-14.8%
C/C(CCc1oc2ccc(Cl)cc2c1-c1ccc(C)o1)=N\O	31.6µM*
COCCCNC(=O)c1ccc(Cn2c(=O)c3ccccc3n(Cc3ccccc3C)c2=O)cc1	-1.2%
COc1ccc(-c2oc3ncnc(N)c3c2-c2ccccc2)cc1	?
COc1cccc(-c2nnc(SCc3nc4ccccc4[nH]3)n2N)c1	-6.0%
COc1ccc2cc(CN(Cc3cccs3)Cc3nnnn3Cc3ccccc3)c(=O)[nH]c2c1	-27.5%
CSc1nc(=NC(C)=O)ss1	?
C/C(=N\Nc1nc(-c2ccc(C)cc2C)cs1)c1cc2ccccc2oc1=O	-24.2%
COC(=O)c1cn(-c2ccccc2)nc1-c1cccnc1	-1.1%
O=C(N/N=C/C1CC2CCC1C2)c1ccc2c(c1)OCO2 (stereo not drawn)	-12.4%
CC(C)(C)c1nc(S(=O)(=O)c2ccc(Cl)cc2)c(N2CCOCC2)o1	-13.4%
CC(C(=O)NC1CCCC1)N(C(=O)c1ccc(-c2ccccc2)[nH]1)c1ccccc1F (stereo not drawn)	?
O=[n+]1c2c(n([O-])c3cc(Br)ccc31)CCC2	11.2µM*
O=C(CNC(=O)c1ccc(S(=O)(=O)N2CCCC2)cc1)N/N=C/c1ccccc1	-2.9%
Cc1cccc(-n2c(C)cc(C(=O)NC3CCCCC3)c2C)c1	0.708µM*
Cc1nnc(NCc2ccco2)c2ccccc12	-9.7%

The last two records of the section before are carried over, then new ones follow.
SMILES	HPGD block
Cc1cccc(-n2c(C)cc(C(=O)NC3CCCCC3)c2C)c1	0.708µM*
Cc1nnc(NCc2ccco2)c2ccccc12	-9.7%
COc1ccc(CN2C(=O)NC3(CCCCCC3)C2=O)cc1F	-2.9%
CC1(OC(=O)c2cccs2)C(=O)C=C2C=C(c3ccsc3)OC=C2C1=O (stereo not drawn)	-0.4%
Cc1c(CNC2CCCC(C)C2C)c(C(=O)O)c(C)n1Cc1ccccc1 (stereo not drawn)	-0.7%
CN1CCN(CC(=O)N/N=C/c2ccc(F)c(F)c2)CC1	-1.8%
NC(=O)CC[C@H](NC(=O)c1ccc(F)cc1)C(=O)OCC(=O)Nc1ccc(N2CCOCC2)cc1	-5.8%
CCOC(=O)CSc1nc2sc3c(c2c(=O)[nH]1)CC(C)(CC)OC3 (stereo not drawn)	-9.2%
CCOc1cc(/C=N/Nc2ccccc2Cl)ccc1OCC(=O)O	-20.6%

Assay outcomes: PubChem, National Center for Advancing Translational Sciences (NCATS)
